# Bead autofluor – counter-screen for toxin protease inhibitors: compound fluorescence; compound autofluorescence counterscreen, microsphere flow cytometry; hits give high values; fluorescence intensity (no concentration beside the values); 360,000 tested, 3.1% active; AID 624483;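 active = at least 3 SD above the mean of all compounds, about 16000 in these data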;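 also: 100 nL of 1 mM stock went into each well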
# * = called active by the depositor.
SMILES,Bead autofluor
Cc1noc(C)c1C(=O)OC(C)C(=O)Nc1ccc([N+](=O)[O-])cc1C(F)(F)F (centres undefined),2831
COc1cccc(C(O)c2ncc(-c3ccccc3)[nH]2)c1 (centres undefined),2963
O=C1NC[C@H](CCCCN2C[C@H](Cc3ccccc3)N(CC3CCCCC3)C(=O)C2=O)N(CCc2ccc(O)cc2)C1=O,5838
O=C(COC(=O)c1ccc(S(=O)(=O)N2CCCCCC2)cc1)Nc1ccccc1C(F)(F)F,2861
COc1cccc(-c2cc3nc(Nc4ccc(OC)c(OC)c4)n(C)c(=O)c3s2)c1,3597
CCCOc1ccc(F)cc1-c1cc(C(=O)Nc2cc(OC)ccc2OC)[nH]n1,3638
CCCC(=O)N1CCC1(C)C(=O)Nc1ccc(-n2cccc2)cc1 (centres undefined),3440
CCOC(=O)[C@@H](NC(=O)/C=C/[C@H]1O[C@@H](n2cc(C)c(=O)[nH]c2=O)C[C@@H]1O)C(C)C,5757
COc1ccc(Cl)cc1Nc1cc(C)nc2ncnn12,3464
CCc1nc2c(OCc3ccc(C#N)cc3)cccn2c1N(C)C(=O)c1cccs1,3914
CCCCCCN1C[C@@H](n2cc(-c3ccc(F)cc3)nn2)[C@H](O)C[C@@H]1c1ccc(Cl)cc1,3838
CC(=O)c1cccc(-c2cnc3c(NC=O)cc(-c4ccccc4F)cn23)c1,3969
O=C(NCCS(=O)(=O)N1CCN(c2ccccc2)CC1)C1CCCCC1,2892
O=C(NCc1nnnn1-c1ccc(Cl)cc1)c1ccc2c(c1)OCO2,2892
COc1ccccc1Cc1c(-c2ccc(C)cc2)nc2cc(C)c(Br)c(C)n12,4617
Cc1ccc(C)c2c1CCC(=Cc1ccccc1[N+](=O)[O-])C2=O,4013
Cc1ccc2nc(-c3ccc(Cl)cc3)c(Cc3ccccc3C(F)(F)F)n2c1,6189
CC1(c2nnnn2Cc2ccccc2)CCC(=O)N1c1ccc(N2CCOCC2)cc1 (centres undefined),4016
Cn1nc(NC(=O)C(F)(F)F)c2nccnc21,2762
C[C@@H]1CN([C@H](C)CO)C(=O)CCCn2nncc2CO[C@@H]1CN(C)C(=O)Nc1ccc(N2CCCCC2)cc1,3274
Oc1ccc(C[C@H]2CNC(=S)N2C[C@H]2CCCN2C[C@H](Cc2ccccc2)N2C[C@H](Cc3ccccc3)N(CC3CCCCC3)C2=S)cc1,5861
Cc1ccc([C@H]2C[C@H](n3cc(-c4ccc(F)cc4)nn3)[C@@H](O)CN2CC2CCCCC2)cc1,3419
CC1(C(=O)NS(=O)(=O)C2CC2)CCN(C(=O)c2cc3ccccc3s2)C1 (centres undefined),2932
Cn1c(NCc2ccccc2F)nc2cc(-c3cccc(Cl)c3)sc2c1=O,4057
O=C(Nc1nnc([C@@H]2C[C@H](O)[C@@H](CO)O2)s1)Nc1ccc(F)cc1F,4086
# Later entries:
SMILES,Bead autofluor
Cc1ccc(NC(=O)CCNC(=O)N2CC(=O)Nc3ccccc32)cc1Cl,3603
CCOC1=C2CN(S(=O)(=O)c3ccccc3)[C@H](c3ccccc3)C[C@H]2n2c(=O)n(-c3ccccc3)c(=O)n2C1,6079
CC(C)[C@@H]1Cc2[nH][nH]c(=O)c2[C@H](c2ccc(F)cc2)O1,6277
CS(=O)(=O)Nc1ccc(-c2ccc3nccn3c2)cc1,2805
CC(=O)c1ccc(OC2(C)CCN(Cc3ccc4ccccc4c3)C2)cc1 (centres undefined),2941
C[C@@H]1CN([C@@H](C)CO)C(=O)c2cc(Br)cnc2O[C@H]1CN(C)S(=O)(=O)c1ccccc1,3331
COc1ccc(C=C2CCC3C(CCCC34OCCO4)C2=O)cc1 (centres undefined),2888
Cc1cc(C)c(S(=O)(=O)N2Cc3ccccc3-n3nncc3C2)c(C)c1,3345
COc1ccc2[nH]c3c(c(=O)c2c1)CCCC3,5396
O=c1[nH]c2ccccc2n1C1CCN(C(c2cc3ccccc3o2)c2nnnn2Cc2ccccc2)CC1 (centres undefined),4840
COC(=O)[C@]12CCCCC=C1N(Cc1ccco1)C(=O)[C@H](CC(=O)NCC13CC4CC(CC(C4)C1)C3)C2,4377
CC(C)(C)n1nnnc1C(c1ccccc1)N1CCN(c2ccc(F)cc2)CC1 (centres undefined),6248
Cc1c(P(=S)(c2ccccc2)c2ccccc2)[n+]2ccccc2n1CCc1ccccc1,2878
O=C1NC[C@H](CCCCN2CCN(CCc3ccccc3)C(=O)C2=O)N(CCc2ccccc2)C1=O,5070
Cc1nc(NC(=O)C(C)(C)C)sc1-c1csc(N)n1,3449
C[C@@H]1CCCN1[C@@H]1CS(=O)(=O)N[C@H]1COCc1ccccc1,6178
CCOC(=O)C(=NO)C1=CSC2=NNC(C)(C)N12,3930
CCN1C(=O)[C@H]2[C@@H](c3ccc(OC)cc3)N[C@]3(CCCN(Cc4cccn4C)C3=O)[C@H]2C1=O,3520
COc1cc2c(cc1OC)C(c1c(-c3c(Cl)cccc3Cl)noc1C)=NCC2,3749
Cc1ccc(C(=O)O)cc1NC(=O)CCc1c(C)noc1C,2860
CCNC(=O)C1CCCN(C(=O)c2ccc(OC)c(OC)c2)CC1 (centres undefined),3776
S=C1SCN(Cc2cccs2)CN1Cc1cccs1,2798
CC(=O)Nc1ccc(S(=O)(=O)Nc2nnc(C)s2)cc1,4139
Cc1ccc2nc(C(C)(C)C)c(Cc3cccc(F)c3)n2c1,6596
O=C(NC1CCCCC1)C1c2ccccc2OCC(=O)N1CCc1ccccc1 (centres undefined),5748

# Molecules above with an NH in an aromatic ring, in the order listed:
SMILES,Bead autofluor
COc1cccc(C(O)c2ncc(-c3ccccc3)[nH]2)c1 (centres undefined),2963
CCCOc1ccc(F)cc1-c1cc(C(=O)Nc2cc(OC)ccc2OC)[nH]n1,3638
CCOC(=O)[C@@H](NC(=O)/C=C/[C@H]1O[C@@H](n2cc(C)c(=O)[nH]c2=O)C[C@@H]1O)C(C)C,5757
CC(C)[C@@H]1Cc2[nH][nH]c(=O)c2[C@H](c2ccc(F)cc2)O1,6277
COc1ccc2[nH]c3c(c(=O)c2c1)CCCC3,5396
O=c1[nH]c2ccccc2n1C1CCN(C(c2cc3ccccc3o2)c2nnnn2Cc2ccccc2)CC1 (centres undefined),4840

# Going on with the list.
SMILES,Bead autofluor
CC1C=CC(C)C(C(=O)c2ccccc2)C1C(=O)c1ccccc1 (centres undefined),3787
COc1cc(Cn2c3ccc(NC(=O)CCc4ccc(O)cc4)cc3c(=O)n2C)ccc1F,3735
COc1ccccc1-c1cccc2nccn12,2935
CC[C@H](C)[C@@H]1OC(=O)[C@@H](C)[C@@H](CC)NC(=O)[C@H](C)N(C)C(=O)C(C)(C)C(=O)C(C)NC(=O)[C@H](Cc2ccccc2)N(C)C(=O)[C@H](C(C)C)N(C)C(=O)CNC(=O)[C@H](CC(C)C)N(C)C(=O)CNC1=O (some centres undefined),5994
CC(C)C[C@@H]1Cc2[nH][nH]c(=O)c2[C@H](c2ccc(Cl)cc2)O1,5466
Cc1cccc(C)c1NC(=O)C(c1ccccc1)N1CCN(C/C=C/c2ccccc2)CC1 (centres undefined),6306
Cc1ccc([C@@H]2C[C@H]3[C@@H](CN2S(=O)(=O)c2ccc(C)cc2)C(=O)C[C@@H](c2cccc(Cl)c2)N3S(=O)(=O)c2ccc(C)cc2)cc1,2923
Cc1onc(-c2ccccc2)c1C(=O)N1CCC(C)(C(=O)NS(=O)(=O)C2CC2)C1 (centres undefined),2967
COc1ccc2cc(C3=CC(=O)CC(C)(C)C3=O)ccc2c1,3419
CC(C)CN1CCC1(C)C(=O)Nc1cccc(C#N)c1 (centres undefined),3732
CCCCn1nnnc1C(c1cc2ccccc2o1)N(CCC#N)Cc1ccccc1 (centres undefined),4505
COc1ccccc1C(=O)NNC(=O)c1cc2ccccc2cc1O,3766
COc1ccc(CCN2CC(C(=O)N(C)Cc3ccccn3)CCC2=O)cc1 (centres undefined),3415
CC(=O)Nc1cc(-c2cccc(C(=O)NCCN(C)C)c2)cn2c(-c3ccc(S(C)(=O)=O)cc3)cnc12,3321
CCCNC(=O)C[C@H]1C[C@H]2c3cc(NC(=O)Nc4ccc(F)cc4)ccc3O[C@H]2[C@@H](CO)O1,2960
CC1=C(C(=O)N(C)C)CC(CC(=O)NCC2CCCCC2)C(=O)N1Cc1ccccc1 (centres undefined),3351
Cc1ncc(C(O)c2ccccc2)n1Cc1ccccc1 (centres undefined),3954
C#CCN(C[C@@H]1[C@@H](OC(=O)NCc2ccco2)[C@@H](OC(=O)NCc2ccco2)CN(C(=O)OC(C)C)N1C(=O)OC(C)C)S(=O)(=O)c1ccc(C)cc1,2933
CNc1cccc(-c2ccc(C(C)=O)s2)n1,3462
COc1cccc(-c2cc(CNC(=O)[C@H]3O[C@@H](n4ccc(N)nc4=O)[C@H](O)[C@@H]3O)no2)c1,5994
C[C@H](CO)N1C[C@H](C)[C@H](CN(C)C(=O)OCc2ccccc2)OCc2cnnn2CCCC1=O,2779
COc1ccccc1N1CCN(c2ccc3c(c2)S(=O)(=O)c2cccc(C(=O)NCC4CC4)c2C3=O)CC1,3266
C[C@@H]1CN([C@H](C)CO)C(=O)c2c(c3ccccc3n2C)-c2ccccc2CO[C@H]1CN(C)C(=O)Nc1ccccc1,3469
CCOC(=O)C1CCCN(C(=O)C2(c3ccc(Cl)cc3)CCCC2)CC1 (centres undefined),3847
COc1ccc(Cc2c(-c3ccc(OC)c(OC)c3)nc3cc(C)c(Br)c(C)n23)c(C)c1,4775

# Pulled by compound from the entries so far, 6 records:
SMILES,Bead autofluor
Cc1ccc2nc(-c3ccc(Cl)cc3)c(Cc3ccccc3C(F)(F)F)n2c1,6189
CC(=O)Nc1ccc(S(=O)(=O)Nc2nnc(C)s2)cc1,4139
CC(=O)Nc1cc(-c2cccc(C(=O)NCCN(C)C)c2)cn2c(-c3ccc(S(C)(=O)=O)cc3)cnc12,3321
COc1cccc(C(O)c2ncc(-c3ccccc3)[nH]2)c1 (centres undefined),2963
C[C@@H]1CN([C@@H](C)CO)C(=O)c2cc(Br)cnc2O[C@H]1CN(C)S(=O)(=O)c1ccccc1,3331
COc1ccccc1N1CCN(c2ccc3c(c2)S(=O)(=O)c2cccc(C(=O)NCC4CC4)c2C3=O)CC1,3266

# (listing goes on)
SMILES,Bead autofluor
CC(O)(c1ccccc1)c1nc(-c2ccc3c(c2)OCO3)cs1 (centres undefined),3983
CC(=O)Nc1cccc(C(=O)NN2C(=O)NC3(CCC(C)CC3)C2=O)c1 (centres undefined),3661
CCN(CC)S(=O)(=O)c1ccc(N2CCOCC2)c(NS(=O)(=O)c2ccc(Cl)s2)c1,3701
CCC(OC(=O)c1ccc(S(C)(=O)=O)c([N+](=O)[O-])c1)C(=O)NC1C2CC3CC(C2)CC1C3 (centres undefined),3515
Cc1c(C(=O)NCc2ccccn2)sc(=O)n1Cc1ccc(-c2ccccc2)cc1,5567
COc1ccccc1NC(=O)N(C)C[C@H]1Oc2ncc(Br)cc2C(=O)N([C@H](C)CO)C[C@H]1C,3701
CC1=C(C(=O)N2CCCCCC2)CC(CC(=O)NCc2cccs2)C(=O)N1CCC1=CCCCC1 (centres undefined),6135
C=CCNc1nc(NCCCN2CCCC2=O)c2sc(-c3ccccc3)cc2n1,3191
O=C(NCP(=O)(Oc1ccccc1)Oc1ccccc1)OCc1ccccc1,4480
CC(O)(c1ccccc1)c1nc(-c2cccc(F)c2)cs1 (centres undefined),3318
C[C@H]1CN([C@@H](C)CO)C(=O)c2cc(Br)cnc2O[C@H]1CN(C)C(=O)c1cccnc1,3795
COc1ccc(C(=O)Nc2ccccc2C(=O)Nc2ccccc2)cc1,3569
COc1ccc(C#Cc2ccc3c(c2)O[C@@H](CN(C)C(=O)Nc2cccc(OC)c2)[C@H](C)CN([C@@H](C)CO)S3(=O)=O)cc1,3924
c1ccc(CN2COC3CCCCCC32)cc1 (centres undefined),6219
CC(C)c1ccc(NC(=O)C2Cc3c(-c4cccc(F)c4)ccnc3O2)cc1 (centres undefined),2877
Cc1cc(C)cc(NC(=O)C2CCCCN2S(=O)(=O)c2ccccc2)c1 (centres undefined),3855
Nc1nc2c(ncn2[C@@H]2O[C@H](CNCC3=Cc4cc(O)ccc4OC3)[C@@H](O)[C@H]2O)c(=O)[nH]1,6084
CCc1nc2ccc(C(=O)Nc3ccc(OC)c(OC)c3)cn2c1N(C)Cc1ccc(N(C)C)cc1,3062
Cc1ccc(OCC(=O)OCC(=O)NC2CCS(=O)(=O)C2)cc1C (centres undefined),3240
O=S1(=O)CC(N2CC=CC2)CN1Cc1cn(Cc2ccc(Cl)cc2)nn1 (centres undefined),5782
CC(=O)c1cccc(-c2ccnc3c2CC(C(=O)Nc2cccc(Oc4ccccc4)c2)O3)c1 (centres undefined),3601
Cc1ccccc1CN(C)C[C@H]1OCc2cnnn2CCCC(=O)N([C@@H](C)CO)C[C@@H]1C,3436
OC(c1ccco1)c1nc(-c2ccc(F)c(Cl)c2)cs1 (centres undefined),3481
C[C@@H]1CN([C@H](C)CO)C(=O)CCCn2nncc2CO[C@H]1CN(C)C(=O)NC1CCCCC1,3845
CNC[C@@H]1OCc2cnnn2CCCC(=O)N([C@H](C)CO)C[C@H]1C,3741
# (listing goes on)
SMILES,Bead autofluor
CC(C)CC1C(=O)N(Cc2cn(CCC3OCCO3)nn2)CCS(=O)(=O)N1Cc1ccc(-c2ccc(Cl)c(Cl)c2)cc1 (centres undefined),3778
CC(C)c1ccc(CC(=O)N2CCC2(C)C(=O)Nc2ccccc2)cc1 (centres undefined),3388
OC(c1ccc(F)cc1)c1ncc(-c2cccc(C(F)(F)F)c2)[nH]1 (centres undefined),2921
Cc1ccc(C(C)C)cc1-n1nnc(-c2cccc(Cc3ccc4ccccc4c3)c2)c1C(C)O (centres undefined),4053
COc1ccc(NC(=O)C[C@H]2C(=O)N(CCc3ccccc3)C[C@@H]2c2ccc(OC)cc2)cc1,3657
COc1cc(NC(=O)C(C)(C)C)c(C(=O)OCC(=O)Nc2cc(C)on2)cc1OC,2886
CCOC(=O)[C@]12CCCC=C1N(Cc1ccco1)C(=O)[C@H](CC(=O)NCCC(C)C)C2,5837
O=C(NC(=S)Nc1cccc(O)c1)C12CC3CC(CC(C3)C1)C2,3538
CC(C)Cc1ccc(-c2ccc3nccn3c2)cc1,2881
O=C1CC2(CCCC2)C(=O)N1CN1CCN(S(=O)(=O)c2cc(F)ccc2F)CC1,3345

# Screening data as filed in PubChem BioAssay.

# The list is partial (hit frequency here may not be typical).
